# OX1R antag = OX1R (human) antagonism. actives 1.8% (n = 330,000). OX1R-expressing cells, FRET antagonist read-out. inhibition, % at 6.6 µM. AID 485270; in the data active = inhibition mostly above about 38%, no sharp cut-off; inactive = mostly below about 40%;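 note: 0% = agonist challenge alone and 100% = reference antagonist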
# Target sequence (O43613 whole entry, looked up): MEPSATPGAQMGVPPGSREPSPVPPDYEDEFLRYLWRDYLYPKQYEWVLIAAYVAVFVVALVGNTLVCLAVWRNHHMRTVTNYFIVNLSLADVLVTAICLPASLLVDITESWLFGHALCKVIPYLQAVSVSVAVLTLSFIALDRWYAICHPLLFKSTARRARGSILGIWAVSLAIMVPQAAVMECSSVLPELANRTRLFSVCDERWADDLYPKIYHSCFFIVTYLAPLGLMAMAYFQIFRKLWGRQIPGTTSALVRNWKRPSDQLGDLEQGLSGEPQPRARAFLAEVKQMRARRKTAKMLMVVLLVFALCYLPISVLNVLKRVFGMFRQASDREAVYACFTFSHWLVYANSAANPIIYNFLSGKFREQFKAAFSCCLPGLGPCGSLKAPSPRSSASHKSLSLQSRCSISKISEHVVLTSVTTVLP
# * = called active by the depositor. Some of the compounds tested; most or all hits stand in other tables.
OX1R antag | SMILES
2 | O=[N+]([O-])c1cc([N+](=O)[O-])c(Oc2cccc(Cl)c2Cl)cc1NN1CCCCC1
25 | O=C(c1nc2ncccn2n1)N1CCN(c2ccccc2)CC1
-6 | Cc1ccc(S(=O)(=O)NCC(=O)NCc2cc(=O)n(C)c(=O)n2C)cc1C
3 | CCC(=O)Nc1sc(C(=O)N2CCCCC2)c(C)c1C#N
31 | Cc1cc(C)nc(/N=C(\N)N2CCc3ccccc32)n1
17 | COc1ccc(C(=O)Nc2ccc3nc(N4CCCCC4)cc(C)c3c2)cc1OC
13 | N#CCCN(CCC#N)c1nnc(-c2ccccc2)s1
11 | O=C(CSc1nc(C2CCCCC2)nc2ccccc12)NCc1ccc2c(c1)OCO2
8 | Nc1nnnn1/N=C/c1ccccn1
14 | CCOC(=O)N1CCN(c2nc(-c3ccc(F)cc3)cs2)CC1
17 | O=C1CN(C(=O)CNC(=O)c2ccccc2Cl)c2ccccc2N1
1 | Cc1ccc(CNC(=O)Cn2cncn2)cc1
16 | COc1ccc(NC(=O)COC(C)=O)cc1OC
18 | O=S(=O)(Nc1ccc(-n2cccc2)cc1)c1ccccc1
8 | CCOc1cc(C2C(C#N)=C(N)Oc3n[nH]c(CC)c32)ccc1OCCN1CCOCC1 (stereo not drawn)
41 | CN(C)c1ccc(C(=O)Nc2ccc(O)c3c(=O)cc(-c4ccccc4Cl)oc23)cc1
18 | COc1ccccc1CCNC(=O)c1ccccc1SCC(=O)N1CCCC1
17 | Cc1cccc(N2CCN(C(=O)c3ccc4nc(-c5ccco5)c(-c5ccco5)nc4c3)CC2C)c1 (stereo not drawn)
8 | COc1ccc([C@H]2CC(=O)C=C(c3ccc(Cl)c(F)c3)C2)cc1
17 | O=C(NN1C(=O)/C(=C/c2cccnc2)SC1=S)C(c1ccccc1)c1ccccc1
19 | Cc1ccc(/C=N/NC(=O)C(O)c2ccccc2)o1 (stereo not drawn)
18 | CC1CN(C(=O)c2c([N+](=O)[O-])cnn2C)CC(C)O1 (stereo not drawn)
12 | O=C(OCCN1CCN(C2=NS(=O)(=O)c3ccccc32)CC1)c1cccc(Br)c1
6 | COCCn1c(C)cc(C(=O)COC(=O)c2cccc(O)c2)c1C
13 | Cc1nc2ccccc2c2oc(C(=O)NCCCN3CC(C)CC(C)C3)cc12 (stereo not drawn)
19 | CC(C)C(=O)Nc1ccc2c(c1)C(=O)NC2=O
11 | CC(O)CSc1nc2c(c(=O)n(C)c(=O)n2C)n1CCCc1ccccc1 (stereo not drawn)
-1 | COc1ccccc1N1CCN(C(=O)C2CCC(Cn3c(=S)[nH]c4ccccc4c3=O)CC2)CC1 (stereo not drawn)
49 | Cc1cc(C)n(-c2nnc(SCC(=O)NC3CCCC3)c3ccccc23)n1
22 | O=C(N/C(=C\c1cccnc1)C(=O)N1CCCCC1)c1cccc(Br)c1
1 | O=C1NCCOC(=O)[C@H](Cc2ccc(F)cc2)CC/C=C/C[C@@H]1CC(=O)N(CCO)Cc1ccccc1
13 | CCOC(=O)C1C(c2ccc(O)c(O)c2)NC(=S)NC1(O)C(F)(F)F (stereo not drawn)
42 | CCCc1nn2c(=O)cc(COc3cccc(NC(=O)c4ccco4)c3)nc2s1
22 | COc1cccc(NCc2nnc(SCC(=O)NC3CCS(=O)(=O)C3)n2C2CCCCC2)c1 (stereo not drawn)
8 | COc1ccccc1C(=O)Nc1ccnn1C1CCN(C(=O)C(C)(C)C)CC1
7 | Cc1ccc(CCNC(=O)C2CCN(S(=O)(=O)c3ccc4c(c3)NC(=O)CO4)CC2)cc1
-3 | O=C(NC(=S)NC1CCN(Cc2ccccc2)CC1)c1ccc(F)cc1
10 | C=CCn1c(SCCC)nc2sc3c(c2c1=O)CCc1ccccc1-3
2 | CCCn1nnnc1NCc1ccc(C(C)C)cc1
18 | O=C(c1ccccc1)C1CN(c2ccccc2)CC1c1ccc(Cl)cc1 (stereo not drawn)
12 | COc1ccc(OCCOCC(O)CN2CCOCC2)cc1 (stereo not drawn)
9 | Cc1nn(C)cc1C(=O)Nc1ccccc1Br
24 | CC(C)(C)OC(=O)NCCCC[C@H](NC(=O)c1nc[nH]c1C(=O)N[C@@H](CCCCNC(=O)OC(C)(C)C)C(=O)OC(C)(C)C)C(=O)OC(C)(C)C
21 | Cc1cccc(C)c1OCCn1nc(C(=O)O)c2ccccc2c1=O
13 | CCC(C)C(NC(N)=O)C(=O)Nc1ccc(S(=O)(=O)Nc2ccc(OC)cc2)cc1 (stereo not drawn)
-2 | CCN(CC)Cc1c(C(=O)N/N=C/c2cccc(OCc3ccc(F)cc3)c2)nnn1-c1nonc1N
6 | O=C(CN1C(=O)NC2(CCCCC2)C1=O)NCCc1ccc(Cl)cc1Cl
10 | COc1ccc2c(C(=O)CN3CCSCC3)c[nH]c2c1
5 | O=C(CCN1CCN(c2ccccc2F)CC1)Nc1ccccc1Cl
1 | CN(CC(O)COCc1ccccc1F)C1CCCCC1 (stereo not drawn)

# An excerpt of these results, bar-delimited.
Molecule | OX1R antag
CCCc1nn2c(=O)cc(COc3cccc(NC(=O)c4ccco4)c3)nc2s1 | 42
O=C(NC(=S)NC1CCN(Cc2ccccc2)CC1)c1ccc(F)cc1 | -3
N#CCCN(CCC#N)c1nnc(-c2ccccc2)s1 | 13

# (further entries)
OX1R antag | SMILES
8 | ON(Cc1c(F)cccc1Cl)Cc1c(F)cccc1Cl
0 | COc1ccc(N2CCN(S(=O)(=O)CCNC(=O)/C=C/c3ccc4c(c3)OCO4)CC2)cc1
11 | Cc1nc(SCC(=O)O)c2oc3ccccc3c2n1
5 | CC1(C(=O)O)CCC(C(=O)Nc2ccccc2)C1(C)C (stereo not drawn)
15 | COc1nc(NC(C)(C)C)nc(Oc2ccc(=O)n(-c3ccccc3)n2)n1
13 | CCn1cc(/C=N/NC(=O)c2ccc3c(c2)OCO3)c(C)n1
6 | CCCn1cc(C(=O)OCC)c(=O)c2cc(F)c(F)cc21
-4 | O=C(c1ccc(F)cc1F)N1CCCC(c2nc(-c3ccc(F)cc3)no2)C1 (stereo not drawn)
-1 | CCS(=O)(=O)N1CCN(C2Cc3ccccc3C2)CC1
1 | CC(=O)CC1OC(=O)C(Br)=C1NCc1ccccc1 (stereo not drawn)
12 | COCCn1c(SCC(=O)c2[nH]c(C)c(C(C)=O)c2C)nc2ccccc21
22 | c1ccc(-c2cc3ccccc3[nH]2)cc1
26 | CC(=O)C(Cc1ccccc1)NC(=O)CN(C)Cc1ccccc1Cl (stereo not drawn)
13 | O=C(NCc1ccc(S(=O)(=O)NC2CCCCC2)s1)c1ccccc1
29 | COc1cccc(C(=O)N/N=C(/CCC(=O)O)c2ccccc2)c1
7 | O=c1c2ccccc2cnn1-c1ccc(Cl)nn1
14 | O=C(O)c1cnn(-c2nc(-c3ccc(Cl)cc3)cs2)c1C(F)(F)F
15 | O=C(CCNC(=O)c1ccccc1Cl)NNC(=O)c1ccccc1O
18 | COCCN1CCN(C(=O)C2CCC(=O)N(CCc3cccc(F)c3)C2)CC1 (stereo not drawn)
1 | Cc1ccc(OCc2nc3c4c(ncn3n2)-c2ccccc2CC42CCCC2)cc1
13 | O=C(OCn1nnc2ccccc2c1=O)C1=COCCO1
12 | COCCN(C(=O)CCC(=O)Nc1ccccn1)C(C(=O)NCCC(C)C)c1ccc(OC)cc1 (stereo not drawn)
2 | CC1(C)CCc2cc(-c3ccnc(=S)[nH]3)ccc2O1
7 | Cc1cc(-c2ccc(S(=O)(=O)N3CCc4ccccc4C3)s2)on1
28 | NS(=O)(=O)c1ccc(CCNc2ccccc2[N+](=O)[O-])cc1
38 | O=C1c2ccccc2S(=O)(=O)N1CC(O)Cn1c2ccccc2c2ccccc21 (stereo not drawn)
7 | Cc1ccc(CNC(=O)CCc2nnc3ccc(N4CCC5(CC4)OCCO5)nn23)cc1
21 | CCCC(=O)Nc1nnc(S(=O)(=O)N(C)Cc2ccco2)s1
13 | COC(=O)C(NC(=O)CNS(=O)(=O)c1ccc(Br)cc1)c1ccccc1 (stereo not drawn)
19 | COc1ccc(CC(=O)Nc2cccc(C(=O)NN3C(=O)c4ccccc4C3=O)c2C)cc1
28 | Cc1ccc(OCCC(=O)OC(C)C(=O)Nc2ccc(Cl)cn2)cc1 (stereo not drawn)
15 | Cc1cccc(Oc2coc3cc(OC(=O)c4cc5ccccc5oc4=O)ccc3c2=O)c1
41 | Cc1cccn2c(=O)c(C=O)c(N3CC(C)OC(C)C3)nc12 (stereo not drawn)
8 | O=C(OCc1ccccn1)C1CCN(C(=O)c2ccc(Cl)cc2)CC1
4 | COc1cccc2c1OC[C@@H](CO)[C@H]2N(C)C(=O)Nc1ccc(Cl)cc1
-1 | CC(NC(=O)c1cccc(S(=O)(=O)N2CCN(Cc3ccccc3)CC2)c1)c1ccc(Br)cc1 (stereo not drawn)
7 | Cc1ccc(C)c(Cn2cnc3c(cnn3C(C)(C)C)c2=O)c1
9 | O=C(NC12CC3CC(CC(C3)C1)C2)C1CC(=O)N(c2ccc(Br)cc2)C1 (stereo not drawn)
16 | O=C(Nc1nnc(SCc2cccc(F)c2)s1)c1ccco1
12 | Cn1nc(CC(=O)NC2CCCCCCCCCCC2)c2ccccc2c1=O
4 | CCOc1ccc(C2C(C(=O)Nc3ccc(F)cc3)=C(C)Nc3nc(CCCO)nn32)cc1 (stereo not drawn)
19 | COc1ccc2c(C)cc(SCC(=O)Nc3nsc(-c4ccc(C)cc4)n3)nc2c1
5 | CCCOCC1CC2(SC(=Nc3ccc(C)cc3)NC2=O)C(=O)O1 (stereo not drawn)
8 | OCCOCCn1c(C(CO)Nc2nc(-c3ccc(Cl)cc3)cs2)nc2ccccc21 (stereo not drawn)
8 | COc1cccc(CNC(=O)CCC2CCCN(c3cc(C)nc(N(C)C)n3)C2)c1 (stereo not drawn)
12 | CC(C)c1ccc(NC(=O)C(c2ccccc2)N(Cc2ccco2)C(=O)CC2NC(=O)NC2=O)cc1 (stereo not drawn)
11 | COC(=O)c1ccc(NC(=O)c2cc[n+]([O-])cc2)cc1
5 | CCN(CC)CCCN(Cc1cc2cc3c(cc2[nH]c1=O)OCO3)C(=O)Nc1ccccc1OC
2 | CCN1CCc2c(sc(NC(=O)c3ccc(S(=O)(=O)N4CCOCC4)cc3)c2C(N)=O)C1
23 | Cc1cccc(NCc2nc3ccccc3n2C)c1

# Structures from the list above that have a tert-butyl group:
OX1R antag | SMILES
8 | COc1ccccc1C(=O)Nc1ccnn1C1CCN(C(=O)C(C)(C)C)CC1
24 | CC(C)(C)OC(=O)NCCCC[C@H](NC(=O)c1nc[nH]c1C(=O)N[C@@H](CCCCNC(=O)OC(C)(C)C)C(=O)OC(C)(C)C)C(=O)OC(C)(C)C
15 | COc1nc(NC(C)(C)C)nc(Oc2ccc(=O)n(-c3ccccc3)n2)n1
7 | Cc1ccc(C)c(Cn2cnc3c(cnn3C(C)(C)C)c2=O)c1

# Further structures follow:
OX1R antag | SMILES
-5 | Fc1ccccc1NC(=S)Nc1cccnc1
4 | CC(=O)NCCC(=O)Nc1nc(-c2ccc3c(c2)OCCO3)cs1
9 | CC(=O)N1CCN(C2=NC(=O)C(=C3CCCCC3)S2)CC1
23 | CCOC(=O)c1ccc(S(=O)(=O)N2CCN(c3ccccn3)CC2)cc1
11 | Cc1cccc(OCc2ccc(C(=O)N3CCOCC3)o2)c1
13 | COc1cc(CNCc2ccc(OC)c(OC)c2OC)cc(OC)c1
9 | COc1ccc2cc(CN(CC3CCCO3)S(=O)(=O)c3ccccc3Cl)c(=O)[nH]c2c1 (stereo not drawn)
26 | CCOC(=O)C1(CCCc2ccccc2)CCN(C(=O)c2ccoc2)CC1
9 | CCCCOC(=O)N1CCOCCOCCOCCOCC1
6 | CCCCCC(=O)Nc1cccc(C2=NOC3(C2)C[C@@H](C(N)=O)N(C(=O)c2ccc(OC)cc2)C3)c1 (stereo partly drawn)

# The list goes on (3 carried over from the part before).
OX1R antag | SMILES
26 | CCOC(=O)C1(CCCc2ccccc2)CCN(C(=O)c2ccoc2)CC1
9 | CCCCOC(=O)N1CCOCCOCCOCCOCC1
6 | CCCCCC(=O)Nc1cccc(C2=NOC3(C2)C[C@@H](C(N)=O)N(C(=O)c2ccc(OC)cc2)C3)c1 (stereo partly drawn)
4 | CCn1cnnc1SCC(=O)NCC1COc2ccccc2O1 (stereo not drawn)
22 | O=[N+]([O-])/C(N=Nc1ccccc1)=N\Nc1ccccc1
-6 | CC(C)CC(=O)Nc1ccc2ccccc2c1
24 | COc1cccc2sc3ccc(NCc4ccc5c(c4)OCO5)cc3c(=O)c12
21 | O=C(Cn1nc(-c2ccccc2)c2ccccc2c1=O)NCC1CCCO1 (stereo not drawn)
19 | CCN1CCN(C(=S)Nc2sc(C)c(-c3ccccc3)c2C(=O)OC)CC1
22 | COc1ccc(-c2ccc(OC)c([C@H]3[C@H]4C=CC[C@@H](C)[C@@H]4C(=O)N3Cc3ccccc3)c2)cc1OC
11 | O=C(NC1CCCCC1)C(c1ccc(F)cc1)N(C(=O)Cc1ccsc1)c1ccc(F)cc1 (stereo not drawn)
23 | COc1cc(OC)cc(C(=O)NCCCNC(=O)c2ccccn2)c1
2 | Cc1cccc(N2CC(C(=O)NCc3ccco3)CC2=O)c1C (stereo not drawn)
18 | CCOC(=O)N1CCN(Cc2nc(-c3ccc(OC)cc3)no2)CC1
17 | CC1(c2nnc(-c3ccc(F)cc3)o2)CC(c2ccc(Cl)cc2)=NO1 (stereo not drawn)
24 | Nc1nc(NCc2c(F)cccc2Cl)nn1-c1ccccc1
22 | C=CCn1c(SCc2c(C)noc2C)nc2sc(C)c(C)c2c1=O
41 | O=C(NC(Cc1ccccc1)C(=O)O)/C(=C/c1cccc([N+](=O)[O-])c1)NC(=O)c1ccco1 (stereo not drawn)
16 | Cc1c(C(=O)O)oc2c1C(=O)CC(C)(C)C2
8 | CC1CCCN(S(=O)(=O)c2ccc(S(=O)(=O)N3CCCC3)cc2)C1 (stereo not drawn)
-1 | COC(=O)c1ccc(C(=O)OC)c(NC(=O)C2CCCO2)c1 (stereo not drawn)
11 | CC(=O)N(C(C)=O)c1ncc2c([nH]c3ccccc32)c1C#N

# Screens deposited in PubChem BioAssay by The Scripps Research Institute Molecular Screening Center.
